# Screening results as filed in PubChem.
# p53 mut binder: mutant p53 (human) binding; small molecule microarray binding, anti-GST fluorescence; calls only; AID 624136; 17,000 compounds, 0.4% hits;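 active = compounds whose four printed spots each glow above background more than chance allows, each with a p-value under 7%; compounds were printed on slides so no solution concentration is given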;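 note: about 2 pmol printed per array spot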
# STAT3 SMM: binders of human STAT3 | P40763 | Small molecule microarray, His-STAT3 binding, anti-His fluorescence | calls only | 17,000 compounds, 0.2% hits | AID 624138;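 active = compounds whose four printed spots each show fluorescence over background unusually high for their array block, chance value under 7%; compounds were printed on slides so no solution concentration is given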;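 note: about 2 pmol printed per array spot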
# Target sequence (P40763 whole entry, looked up): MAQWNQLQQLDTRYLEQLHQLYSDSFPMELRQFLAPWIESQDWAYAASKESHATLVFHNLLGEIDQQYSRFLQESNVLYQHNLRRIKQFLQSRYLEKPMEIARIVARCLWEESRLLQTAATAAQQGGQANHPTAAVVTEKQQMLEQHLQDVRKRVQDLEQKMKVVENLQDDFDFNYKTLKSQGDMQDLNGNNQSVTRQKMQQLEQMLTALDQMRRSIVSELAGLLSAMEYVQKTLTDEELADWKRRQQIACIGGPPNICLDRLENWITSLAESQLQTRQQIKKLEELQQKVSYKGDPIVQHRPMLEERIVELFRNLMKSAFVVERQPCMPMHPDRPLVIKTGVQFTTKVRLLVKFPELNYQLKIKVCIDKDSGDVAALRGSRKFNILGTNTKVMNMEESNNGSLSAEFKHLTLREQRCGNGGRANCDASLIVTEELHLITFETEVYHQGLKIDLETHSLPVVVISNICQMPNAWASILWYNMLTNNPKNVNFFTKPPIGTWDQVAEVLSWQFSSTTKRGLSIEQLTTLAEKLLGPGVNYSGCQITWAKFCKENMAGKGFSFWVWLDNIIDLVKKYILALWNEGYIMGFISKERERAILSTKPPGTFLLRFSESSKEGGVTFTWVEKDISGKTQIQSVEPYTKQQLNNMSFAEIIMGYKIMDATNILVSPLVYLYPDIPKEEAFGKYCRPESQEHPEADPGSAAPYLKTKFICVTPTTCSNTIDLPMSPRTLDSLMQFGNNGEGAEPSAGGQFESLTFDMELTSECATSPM
# ID4 SMM: binders of human ID4 protein; P47928; 31,000 compounds, 1.2% hits; small molecule microarray, Flag-ID4 binding, fluorescence F/B; calls only;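 active = spot signal over background at p below 0.07 in all four prints; compounds were printed on slides so no solution concentration is given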;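 note: a binder raises fluorescence above local background on the spot; about 2 pmol printed per array spot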
# Target sequence (P47928 whole entry, looked up): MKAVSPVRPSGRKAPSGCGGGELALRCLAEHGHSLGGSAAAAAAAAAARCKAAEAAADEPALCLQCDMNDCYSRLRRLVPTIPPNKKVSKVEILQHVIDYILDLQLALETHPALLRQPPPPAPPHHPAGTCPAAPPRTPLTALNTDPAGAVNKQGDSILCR
# Myc binder: binds human c-Myc on microarray. P01106. small molecule microarray, His-c-Myc binding, anti-His fluorescence. calls only. 17,000 compounds, 1.5% hits;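 active = spot fluorescence over background with P-value below 7% in all four replicate spots, showing protein binding; compounds were printed on slides so no solution concentration is given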;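 note: score is binary with 100 for all four spots passing and 0 otherwise; about 2 pmol printed per array spot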
# Calls only; i = inactive; . = not tested or not shown; + = active, no number. These rows are one share of the data (hit frequency here may not be typical).
# The first 4 compounds, to show the layout:
# Below each compound – Myc binder | p53 mut binder | ID4 SMM | STAT3 SMM
- Cc1noc(C)c1NC(=O)N(C)C[C@@H]1OCCCC[C@@H](C)Oc2ccc(NC(=O)Cc3ccccc3)cc2C(=O)N([C@@H](C)CO)C[C@@H]1C
    i | i | i | i
- C[C@@H]1CN([C@@H](C)CO)C(=O)Cc2cc(NC(=O)CCC(F)(F)F)ccc2O[C@@H]1CN(C)C(=O)Nc1cccc2ccccc12
    i | i | i | i
- COCCCN1C(=O)[C@@]2(Cc3ccccc31)c1ccccc1C(=O)N(C1CCCCC1)[C@H]2c1ccc(CO)cc1
    i | i | i | i
- C[C@@H]1CN([C@H](C)CO)C(=O)Cc2cc(NC(=O)Nc3ccc4c(c3)OCO4)ccc2O[C@@H]1CN(C)C(=O)Nc1cccc2ccccc12
    i | i | i | i

# All compounds of this part (from the top)
# Below each compound – Myc binder | p53 mut binder | ID4 SMM | STAT3 SMM
- Cc1noc(C)c1NC(=O)N(C)C[C@@H]1OCCCC[C@@H](C)Oc2ccc(NC(=O)Cc3ccccc3)cc2C(=O)N([C@@H](C)CO)C[C@@H]1C
    i | i | i | i
- C[C@@H]1CN([C@@H](C)CO)C(=O)Cc2cc(NC(=O)CCC(F)(F)F)ccc2O[C@@H]1CN(C)C(=O)Nc1cccc2ccccc12
    i | i | i | i
- COCCCN1C(=O)[C@@]2(Cc3ccccc31)c1ccccc1C(=O)N(C1CCCCC1)[C@H]2c1ccc(CO)cc1
    i | i | i | i
- C[C@@H]1CN([C@H](C)CO)C(=O)Cc2cc(NC(=O)Nc3ccc4c(c3)OCO4)ccc2O[C@@H]1CN(C)C(=O)Nc1cccc2ccccc12
    i | i | i | i
- C/C(=C\Cc1c(O[C@@H]2O[C@H](CO)[C@@H](O)[C@H](O)[C@H]2O)ccc2ccc(=O)oc12)CO
    i | i | i | i
- C[C@@H]1CN([C@H](C)CO)C(=O)c2cccc(NC(=O)c3ccncc3)c2O[C@H]1CN(C)Cc1ccc(Cl)c(Cl)c1
    i | i | i | i
- Cc1ccc(C(=O)CC2(O)C(=O)N(Cc3cccc4ccccc34)c3ccccc32)cc1 (stereo not drawn)
    i | i | i | i
- C[C@H](CO)N1C[C@H](C)[C@H](CN(C)Cc2ccc3c(c2)OCO3)Oc2ncc(-c3cc4ccccc4o3)cc2C1=O
    i | i | i | i
- C[C@@H]1CN([C@H](C)CO)C(=O)c2cccc(NC(=O)c3cnccn3)c2O[C@H]1CN(C)CC1CC1
    i | i | i | i
- Cc1ccc(S(=O)(=O)N[C@@H]2CCCN(Cc3ccc(OCCO)cc3)C2)cc1
    i | i | + | i
- COc1ccc(S(=O)(=O)N(C)C[C@@H]2Oc3c(NC(=O)c4cnccn4)cccc3C(=O)N([C@H](C)CO)C[C@H]2C)cc1
    i | i | i | i
- O=C1O[C@@H](c2ccccc2)[C@@H](c2ccccc2)N2[C@@H](c3ccc(O)cc3)[C@]3(C(=O)Nc4ccc(C#CC5(O)CCCCCC5)cc43)[C@@H](C(=O)N3CCN(c4ncccn4)CC3)[C@H]12
    i | i | i | i
- c1ccc2[nH]c(NCCN3CCOCC3)nc2c1
    i | i | i | i
- COc1ccc(S(=O)(=O)Nc2ccc3c(c2)C(=O)N([C@H](C)CO)C[C@@H](C)[C@@H](CN(C)C)OCCCC[C@H](C)O3)cc1
    i | i | . | i
- Cc1ccc(S(=O)(=O)Nc2ccc3c(c2)C(=O)N([C@@H](C)CO)C[C@H](C)[C@@H](CN(C)Cc2ccc(C(F)(F)F)cc2)OCCCC[C@H](C)O3)cc1
    i | i | . | i
- C[C@H]1CN([C@@H](C)CO)C(=O)c2cc(NC(=O)CCCN(C)C)ccc2O[C@@H]1CN(C)C(=O)Nc1cccc2ccccc12
    i | i | i | i
- C[C@@H]1CN([C@@H](C)CO)C(=O)Cc2cc(NC(=O)Nc3ccc4c(c3)OCO4)ccc2O[C@H]1CN(C)C(=O)NC1CCCCC1
    i | i | i | i
- CNC[C@H]1OCCCC[C@@H](C)Oc2ccc(N(C)C)cc2C(=O)N([C@@H](C)CO)C[C@H]1C
    i | i | i | i
- Cc1noc(C)c1NC(=O)N(C)C[C@H]1Oc2ccc(NC(=O)Nc3ccc(F)cc3)cc2C(=O)N([C@H](C)CO)C[C@@H]1C
    i | i | i | i
- COc1ccc(CN(C)C[C@H]2Oc3ccc(NS(=O)(=O)c4ccc(Cl)cc4)cc3C(=O)N([C@H](C)CO)C[C@H]2C)cc1
    i | i | i | i
- COC(=O)c1c(C)oc2cc(Br)c(OCC(=O)c3ccc(F)cc3)cc12
    i | i | i | i
- COc1ccccc1NC(=O)N(C)C[C@H]1OCc2cnnn2CCCC(=O)N([C@H](C)CO)C[C@@H]1C
    i | i | i | i
- C[C@H](CO)N1C[C@H](C)[C@H](CN(C)Cc2ccc3c(c2)OCO3)Oc2ccc(NC(=O)C3CC3)cc2CC1=O
    i | i | i | i
- C[C@H]1CN([C@@H](C)CO)C(=O)c2cc(NC(=O)c3ccncc3)ccc2O[C@@H]1CN(C)C(=O)Nc1ccc2c(c1)OCO2
    i | i | i | i
- COc1ccc(S(=O)(=O)N(C)C[C@@H]2Oc3ccc(NC(=O)Nc4cccc5ccccc45)cc3C(=O)N([C@H](C)CO)C[C@H]2C)cc1
    i | i | i | i
- COC(=O)c1c2oc(c1C(=O)OC)C(=O)N(C)Cc1cn(nn1)C[C@@H](Cc1ccccc1)NC(=O)N[C@H](CO)CC2
    i | i | i | i
- O=C(NCc1c(OC(=O)c2ccccc2[N+](=O)[O-])ccc2ccccc12)c1ccccc1
    i | i | i | i
- C=CCNC(=O)[C@H]1[C@@H]2C(=O)O[C@@H](c3ccccc3)[C@@H](c3ccccc3)N2[C@@H](c2ccccc2OCCO)[C@]12C(=O)N(C(=O)OCCOC)c1ccc(C#Cc3ccc(OC)cc3)cc12
    i | i | i | i
- C[C@@H]1CN([C@@H](C)CO)C(=O)c2cc(NC(=O)NC3CCCCC3)ccc2O[C@H]1CN(C)C(=O)NC1CCCCC1
    + | i | i | i
- CC(=O)O[C@]1(C(C)=O)CC[C@H]2[C@@H]3C=C(C)C4=CC(=O)CC[C@]4(C)[C@H]3CC[C@@]21C
    i | i | i | i
- C[C@H](CO)N1C[C@H](C)[C@H](CN(C)C(=O)OCc2ccccc2)OCc2cn(nn2)CCCC1=O
    i | i | i | i
- C[C@@H]1CCCCO[C@@H](CN(C)C(=O)Cc2ccccc2)[C@H](C)CN([C@@H](C)CO)C(=O)c2cc(NC(=O)c3ccncc3)ccc2O1
    i | i | i | i
- CC(C)NC(=O)N(C)C[C@H]1Oc2ccc(NC(=O)CCC(F)(F)F)cc2C(=O)N([C@H](C)CO)C[C@H]1C
    i | i | i | i
- C[C@H](CO)N1C[C@H](C)[C@@H](CN(C)Cc2ccc3c(c2)OCO3)OCCCC[C@H](C)Oc2ccc(NC(=O)CCC(F)(F)F)cc2C1=O
    i | i | . | i
- COC(=O)c1ccccc1-n1c(CCC(=O)O)ccc1-c1ccccc1
    i | i | i | i
- Cn1ccnc1SCC(=O)Nc1cccc(F)c1
    i | i | i | i
- C[C@H](CO)N1C[C@H](C)[C@H](CN(C)S(=O)(=O)c2ccc(F)cc2)Oc2c(NS(=O)(=O)c3ccc(F)cc3)cccc2C1=O
    i | i | . | i
- COc1ccc(NC(=O)Nc2cccc3c2O[C@H](CN(C)S(=O)(=O)c2ccc(Cl)cc2)[C@H](C)CN([C@H](C)CO)C3=O)cc1
    i | i | i | i
- N#Cc1ccccc1NC(=O)CN1CCC(C(N)=O)CC1
    i | i | i | i
- COC(=O)c1ccc(C(=O)OC)c(NC(=O)c2cnn3cccnc23)c1
    i | i | i | i
- C[C@@H]1CN([C@@H](C)CO)C(=O)c2cccc(NC(=O)NC3CCCCC3)c2O[C@@H]1CN(C)C
    i | i | i | i
- C[C@@H]1CN([C@@H](C)CO)C(=O)CCCn2cc(nn2)CO[C@H]1CN(C)Cc1ccc(Cl)c(Cl)c1
    i | i | i | i
- COc1ccc(S(=O)(=O)N(C)C[C@@H]2Oc3ccc(NC(=O)NC(C)C)cc3C(=O)N([C@H](C)CO)C[C@H]2C)cc1
    i | i | i | i
- O=C1O[C@@H](c2ccccc2)[C@@H](c2ccccc2)N2[C@@H](c3ccc(OCCO)cc3)[C@]3(C(=O)Nc4ccc(C#CC5(O)CCCCCC5)cc43)[C@@H](C(=O)O)[C@H]12
    i | i | i | i
- C[C@H]1CN([C@@H](C)CO)C(=O)Cc2cc(NS(C)(=O)=O)ccc2O[C@@H]1CN(C)Cc1ccc(-c2ccccc2)cc1
    i | i | i | i
- C[C@@H]1CCCCO[C@H](CN(C)Cc2ccc3c(c2)OCO3)[C@H](C)CN([C@@H](C)CO)C(=O)c2cc(NC(=O)Cc3ccccc3)ccc2O1
    i | i | . | i
- Cc1noc(C)c1S(=O)(=O)Nc1ccc2c(c1)C(=O)N([C@@H](C)CO)C[C@@H](C)[C@H](CN(C)Cc1ccccc1)O2
    i | i | . | i
- C[C@@H]1CN([C@@H](C)CO)C(=O)c2cccc(NC(=O)Nc3cccc4ccccc34)c2O[C@H]1CN(C)S(=O)(=O)c1ccc(Cl)cc1
    i | i | i | i
- C=CCN1C(=O)[C@@]2(O[C@@H](CCn3cc(CCO)nn3)[C@H]([Si](C)(C)c3ccc(OC)cc3)[C@H]2C)c2ccccc21
    i | i | i | i
- O=C(COc1ccccc1)Nc1ccc2oc(-c3ccccc3)nc2c1
    i | i | i | i
- C[C@H](CO)N1C[C@H](C)[C@@H](CN(C)S(=O)(=O)c2ccccc2)Oc2c(NC(=O)NC3CCCCC3)cccc2C1=O
    i | i | i | i
- COc1ccc(CC(=O)Nc2cccc(C(=O)O)c2)cc1OC
    i | i | i | i
- COc1cc(C2c3c(cc(OC)c(O)c3O)CC(CO)C2CO[C@@H]2O[C@H](C(=O)O)[C@@H](O)[C@H](O)[C@H]2O)cc(OC)c1O (stereo partly drawn)
    i | i | i | i
- C[C@H](CO)N1C[C@H](C)[C@H](CN(C)C(=O)CCCN(C)C)OCCCC[C@H](C)Oc2ccc(NC(=O)Nc3cccc4ccccc34)cc2C1=O
    i | i | i | i
- COc1cc(C(C)=O)ccc1O[C@@H]1O[C@H](CO)[C@@H](O)[C@H](O)[C@H]1O
    i | i | i | i
- CCOc1ccccc1OCC(=O)Nc1ccccc1[N+](=O)[O-]
    i | i | i | i
- CCO[C@H]1OC(C(=O)N2CCN(Cc3ccc4c(c3)OCO4)CC2)=C[C@@H](c2ccc(Br)cc2)[C@@H]1CCCO
    i | i | i | i
- C=C1C[C@@]23CC[C@@H]4[C@](C)(C(=O)O)CCC[C@@]4(C)C2=CC[C@H]1C3
    i | i | . | i
- C[C@@H]1CN([C@@H](C)CO)C(=O)Cc2cc(NC(=O)CCC(F)(F)F)ccc2O[C@H]1CN(C)CC1CC1
    i | i | i | i
- C[C@H](CO)N1C[C@H](C)[C@H](CN(C)C(=O)Nc2ccccc2)OCCCC[C@H](C)Oc2ccc(NC(=O)C3CCCCC3)cc2C1=O
    i | i | i | i

# Carrying on:
# Below each compound – Myc binder | p53 mut binder | ID4 SMM | STAT3 SMM
- COc1ccc(CN(C)C[C@@H]2Oc3ccc(NS(=O)(=O)c4ccc(Cl)cc4)cc3CC(=O)N([C@H](C)CO)C[C@H]2C)cc1
    i | i | i | i
- COc1ccc([C@@H](OC(=O)Nc2ccc(SC)cc2)[C@@H](CCO)OC)cc1O
    i | i | i | i
- C[C@@H]1CN([C@@H](C)CO)C(=O)c2cc(NS(=O)(=O)c3ccc(Cl)cc3)ccc2O[C@H]1CN(C)C(=O)NC1CCCCC1
    i | i | i | i
- C[C@H]1CCCCO[C@H](CN(C)C(=O)C2CCCCC2)[C@@H](C)CN([C@@H](C)CO)C(=O)c2cc(N(C)C)ccc2O1
    i | i | i | i
- COc1ccc(NC(=O)Nc2cccc3c2O[C@@H](CN(C)S(=O)(=O)c2ccc(Cl)cc2)[C@@H](C)CN([C@@H](C)CO)C3=O)cc1
    i | i | i | i
- C[C@H](CO)N1C[C@H](C)[C@H](CN(C)Cc2ccccc2)OCc2cnnn2CCCC1=O
    i | i | i | i
- COc1cccc2c1C(=O)c1ccc3c(c1C2=O)C(=O)CC(C)(O)C3 (stereo not drawn)
    i | i | i | i
- CNC[C@@H]1Oc2c(NC(=O)NC3CCCCC3)cccc2C(=O)N([C@@H](C)CO)C[C@@H]1C
    i | i | i | i
- COc1ccc(CN(C)C[C@H]2OCCCC[C@@H](C)Oc3ccc(NS(=O)(=O)c4ccc(C)cc4)cc3C(=O)N([C@H](C)CO)C[C@@H]2C)cc1
    i | i | . | i
- C[C@H]1CN([C@@H](C)CO)C(=O)c2cccc(NS(=O)(=O)c3cn(C)cn3)c2O[C@@H]1CN(C)C(=O)Nc1ccc(C(F)(F)F)cc1
    i | i | i | i
- C[C@@H]1CN([C@@H](C)CO)C(=O)Cc2cc(NC(=O)Cn3cnnn3)ccc2O[C@@H]1CN(C)C(=O)Nc1ccc(F)cc1
    i | i | i | i
- CCC(C)C(=O)OC1CC(C)C=C2C=CC(C)C(CCC(O)CC(O)CC(=O)O)C21 (stereo not drawn)
    i | i | . | i
- C[C@@H]1CN([C@@H](C)CO)C(=O)Cc2cc(NC(=O)Nc3cccc4ccccc34)ccc2O[C@@H]1CN(C)Cc1ccncc1
    i | i | i | i
- C[C@H]1CN([C@@H](C)CO)C(=O)c2cc(N(C)C)ccc2O[C@@H]1CN(C)C(=O)Nc1ccc2c(c1)OCO2
    i | i | i | i
